# From PubChem BioAssay
# A1 apoptosis 2: A1 inhibitors via caspase activation, primary screen, cell-based, luminescence, HTS, two replicates. MEF A1-2A-BIM cells, caspase-Glo luminescence, 3 h; percent of clofoctol response, DMSO zero. caspase activation, % (concentration not given with the values). 24,000 tested, under 10 active; in the data active means caspase activation above about 5.9%;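 further: wells of about 30 µL received 50 nL stock; the first replicate is given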
#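 Evaluation: Caspase-3/7 activity from luminescence increase | Assay system: A1-2A-BIM mouse embryonic fibroblasts | Quantity: 2500 MEF cells/well | Medium: RPMI-1640 plus 10% FBS | Detection: Caspase-Glo 3/7 luminescence, 1 h at room temperature | Dosing: 50 nL compound per well, pinned | Timing: Cells settled overnight, compound exposure 3 h at 37 °C, 5% CO2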
# * hit, by the source's call. Not all compounds are listed, so the mix of outcomes need not match the whole.
mol: CC(C)NC(=O)Nc1ccc2c(c1)CC(=O)N([C@@H](C)CO)C[C@@H](C)[C@@H](CN(C)Cc1ccc(C(F)(F)F)cc1)O2
  A1 apoptosis 2: 0.9
mol: C[C@@H]1CN([C@H](C)CO)C(=O)c2cc(NC(=O)C3CCCCC3)ccc2O[C@@H](C)CCCCO[C@@H]1CN(C)Cc1ccc(C(=O)O)cc1
  A1 apoptosis 2: -0.9
mol: Cc1noc(C)c1S(=O)(=O)N(C)C[C@@H]1OCCCC[C@H](C)Oc2ccc(NC(=O)Nc3cccc4ccccc34)cc2C(=O)N([C@H](C)CO)C[C@H]1C
  A1 apoptosis 2: -0.9
mol: CNC[C@H]1Oc2ccc(N)cc2C(=O)N([C@@H](C)CO)C[C@@H]1C
  A1 apoptosis 2: -0.5
mol: COc1ccc(CN(C)C[C@@H]2OCCCC[C@@H](C)Oc3ccc(NC(=O)Nc4ccc(C(F)(F)F)cc4)cc3C(=O)N([C@@H](C)CO)C[C@@H]2C)cc1
  A1 apoptosis 2: 0.4
mol: C[C@H](CO)N1C[C@H](C)[C@H](CN(C)S(=O)(=O)c2cn(C)cn2)Oc2ccc(NS(=O)(=O)c3ccccc3)cc2C1=O
  A1 apoptosis 2: -0.8
mol: C[C@@H]1CN([C@@H](C)CO)C(=O)c2cccc(NS(C)(=O)=O)c2O[C@H]1CN(C)Cc1ccncc1
  A1 apoptosis 2: -0.4
mol: Cc1noc(C)c1NC(=O)Nc1ccc2c(c1)C(=O)N([C@H](C)CO)C[C@H](C)[C@@H](CN(C)C(=O)Nc1ccc3c(c1)OCO3)O2
  A1 apoptosis 2: 0.4
mol: C[C@H](CO)N1C[C@H](C)[C@@H](CN(C)C(=O)Nc2ccccc2)Oc2ccc(NC(=O)CCN3CCOCC3)cc2C1=O
  A1 apoptosis 2: 0.8
mol: O=C(O)CCCCCCC(=O)Nc1ccc(C2CC(CSc3nc(-c4ccccc4)c(-c4ccccc4)o3)OC(c3ccccc3)O2)cc1 (stereo not drawn)
  A1 apoptosis 2: -0.1

mol: CCOC(=O)/C=C/c1c(OC)cccc1OC
  A1 apoptosis 2: 0.2
mol: C[C@@H]1CCCCO[C@H](CN(C)S(=O)(=O)c2cn(C)cn2)[C@@H](C)CN([C@H](C)CO)C(=O)c2cc(NS(=O)(=O)c3cccs3)ccc2O1
  A1 apoptosis 2: 0.0
mol: C[C@@H]1CCCCO[C@@H](CN(C)C)[C@H](C)CN([C@H](C)CO)C(=O)c2cc(NC(=O)C3CCCCC3)ccc2O1
  A1 apoptosis 2: -0.5
mol: C[C@@H]1CN([C@H](C)CO)C(=O)c2cccc(NC(=O)Nc3cccc4ccccc34)c2O[C@@H]1CN(C)S(C)(=O)=O
  A1 apoptosis 2: 0.2
mol: COc1ccc(NC(=O)N(C)C[C@@H]2Oc3ccc(NC(=O)CCN4CCOCC4)cc3C(=O)N([C@@H](C)CO)C[C@H]2C)cc1
  A1 apoptosis 2: 0.2
mol: CC(C)NC(=O)Nc1ccc2c(c1)C(=O)N([C@@H](C)CO)C[C@H](C)[C@H](CN(C)CC1CCCCC1)OCCCC[C@H](C)O2
  A1 apoptosis 2: 0.1
mol: C[C@@H]1CCCCO[C@@H](CN(C)C(=O)Nc2ccc(C(F)(F)F)cc2)[C@@H](C)CN([C@H](C)CO)C(=O)c2cc(NC(=O)Nc3ccc4c(c3)OCO4)ccc2O1
  A1 apoptosis 2: 0.8
mol: COc1ccc(CN(C)C[C@H]2Oc3ccc(NS(=O)(=O)c4cccs4)cc3C(=O)N([C@@H](C)CO)C[C@@H]2C)cc1
  A1 apoptosis 2: 1.6
mol: C[C@H](CO)N1C[C@H](C)[C@H](CN(C)S(=O)(=O)c2ccc(F)cc2)Oc2c(NC(=O)Nc3ccccc3)cccc2C1=O
  A1 apoptosis 2: 0.3
mol: C[C@@H]1CCCCO[C@@H](CN(C)Cc2ccc(C(F)(F)F)cc2)[C@H](C)CN([C@H](C)CO)C(=O)c2cc(NS(=O)(=O)c3ccc(F)cc3)ccc2O1
  A1 apoptosis 2: -0.2

mol: C[C@H]1CN([C@@H](C)CO)C(=O)c2cc(NC(=O)C3CCCCC3)ccc2O[C@H]1CN(C)Cc1ccc(C(F)(F)F)cc1
  A1 apoptosis 2: -0.1
mol: C[C@H]1CN([C@@H](C)CO)C(=O)Cc2cc(NC(=O)C3CC3)ccc2O[C@@H]1CN(C)Cc1ccc(C(F)(F)F)cc1
  A1 apoptosis 2: 0.0
mol: O=C(N/N=C/c1ccc(CO)o1)c1ccccc1O
  A1 apoptosis 2: -0.4
mol: C[C@H](CO)N1C[C@H](C)[C@H](CN(C)Cc2ccc(Oc3ccccc3)cc2)OCc2cnnn2CCCC1=O
  A1 apoptosis 2: 1.2
mol: C[C@@H]1CN([C@H](C)CO)C(=O)Cc2cc(NS(=O)(=O)c3ccccc3)ccc2O[C@@H]1CN(C)Cc1ccc(-c2ccccc2)cc1
  A1 apoptosis 2: 1.8
mol: C[C@H]1CN([C@@H](C)CO)C(=O)c2cc(NC(=O)Nc3ccc(F)cc3)ccc2O[C@@H]1CN(C)Cc1ccc(Oc2ccccc2)cc1
  A1 apoptosis 2: -0.2
mol: C[C@H](CO)N1C[C@H](C)[C@H](CN(C)Cc2ccc(C(F)(F)F)cc2)Oc2c(NC(=O)CCCCCC(=O)Nc3ccccc3N)cccc2C1=O
  A1 apoptosis 2: 1.1
mol: C[C@H](CO)N1C[C@H](C)[C@H](CN(C)C(=O)Nc2cccc3ccccc23)Oc2ccc(NC(=O)Nc3ccccc3)cc2CC1=O
  A1 apoptosis 2: 0.1
mol: CC(C)NC(=O)N(C)C[C@H]1Oc2c(NC(=O)c3ccncc3)cccc2C(=O)N([C@@H](C)CO)C[C@@H]1C
  A1 apoptosis 2: -0.4
mol: C[C@@H]1CCCCO[C@@H](CN(C)C(=O)CCC(F)(F)F)[C@H](C)CN([C@@H](C)CO)C(=O)c2cc(NC(=O)c3ccncc3)ccc2O1
  A1 apoptosis 2: -0.3

mol: COc1ccc(S(=O)(=O)Nc2ccc3c(c2)C(=O)N([C@@H](C)CO)C[C@@H](C)[C@@H](CN(C)Cc2ccc(C(F)(F)F)cc2)OCCCC[C@H](C)O3)cc1
  A1 apoptosis 2: 0.2
mol: C[C@@H]1CN([C@@H](C)CO)C(=O)CCCn2nncc2CO[C@H]1CN(C)C(=O)c1ccccc1
  A1 apoptosis 2: 0.9
mol: C[C@@H]1CN([C@H](C)CO)C(=O)c2cc(NC(=O)NC3CCCCC3)ccc2O[C@H]1CN(C)C
  A1 apoptosis 2: 1.1
mol: C[C@H](CO)N1C[C@H](C)[C@H](CN(C)Cc2cccc(C(F)(F)F)c2)Oc2ncccc2C1=O
  A1 apoptosis 2: -0.9
mol: C[C@@H]1CN([C@H](C)CO)C(=O)c2cc(NC(=O)Nc3cccc4ccccc34)ccc2O[C@@H]1CN(C)C(=O)Nc1ccc2c(c1)OCO2
  A1 apoptosis 2: 0.5
mol: C[C@H]1CCCCO[C@@H](CN(C)C(=O)Nc2ccc3c(c2)OCO3)[C@@H](C)CN([C@@H](C)CO)C(=O)c2cc(NS(=O)(=O)c3cn(C)cn3)ccc2O1
  A1 apoptosis 2: 1.1
mol: CN(C)c1ccc(/C=N/NC(=O)c2ccccn2)cc1
  A1 apoptosis 2: -13
mol: Cc1ccc(S(=O)(=O)N(C)C[C@H]2Oc3ccc(NC(=O)CCC(F)(F)F)cc3C(=O)N([C@@H](C)CO)C[C@@H]2C)cc1
  A1 apoptosis 2: 0.4
mol: C[C@H](CO)N1C[C@H](C)[C@@H](CN(C)C)OCCCC[C@H](C)Oc2ccc(NS(=O)(=O)c3cn(C)cn3)cc2C1=O
  A1 apoptosis 2: -1.4
mol: COc1ccc(S(=O)(=O)Nc2ccc3c(c2)C(=O)N([C@H](C)CO)C[C@H](C)[C@H](CN(C)S(=O)(=O)c2cccs2)O3)cc1
  A1 apoptosis 2: 0.8

mol: C[C@@H]1CCCCO[C@@H](CN(C)Cc2ccc3c(c2)OCO3)[C@@H](C)CN([C@@H](C)CO)C(=O)c2cc(NC(=O)Cc3ccccc3)ccc2O1
  A1 apoptosis 2: 0.8
mol: C[C@@H]1CN([C@H](C)CO)C(=O)Cc2cc(NC(=O)Cc3ccccc3)ccc2O[C@H]1CN(C)C(=O)Nc1ccccc1
  A1 apoptosis 2: -0.2
mol: C[C@@H]1CN([C@@H](C)CO)C(=O)c2cc(NC(=O)c3ccncc3)ccc2O[C@@H]1CN(C)C(=O)Nc1ccc2c(c1)OCO2
  A1 apoptosis 2: -2.5
mol: C[C@@H]1CN([C@@H](C)CO)C(=O)c2cccc(NS(=O)(=O)c3cn(C)cn3)c2O[C@H]1CN(C)C(=O)NC1CCCCC1
  A1 apoptosis 2: 0.9
mol: COc1ccc(NC(=O)Nc2ccc3c(c2)CC(=O)N([C@H](C)CO)C[C@H](C)[C@H](CN(C)Cc2ccc(Oc4ccccc4)cc2)O3)cc1
  A1 apoptosis 2: 0.0
mol: CC(C)NC(=O)N(C)C[C@@H]1Oc2ccc(NC(=O)NC3CCCCC3)cc2CC(=O)N([C@H](C)CO)C[C@@H]1C
  A1 apoptosis 2: -0.3
mol: CNC[C@@H]1OCCCC[C@H](C)Oc2ccc(NC(=O)Nc3ccc4c(c3)OCO4)cc2C(=O)N([C@@H](C)CO)C[C@H]1C
  A1 apoptosis 2: 0.8
mol: Cc1ccc(S(=O)(=O)N(C)C[C@H]2OCCCC[C@H](C)Oc3ccc(NS(=O)(=O)c4ccc(F)cc4)cc3C(=O)N([C@H](C)CO)C[C@@H]2C)cc1
  A1 apoptosis 2: -1.3
mol: Cc1ccc(S(=O)(=O)N(C)C[C@H]2Oc3ccc(NC(=O)Cc4ccccc4)cc3C(=O)N([C@@H](C)CO)C[C@@H]2C)cc1
  A1 apoptosis 2: -0.2
mol: COc1ccc(NC(=O)Nc2ccc3c(c2)C(=O)N([C@@H](C)CO)C[C@@H](C)[C@H](CN(C)C(=O)Nc2ccc(OC)cc2)OCCCC[C@@H](C)O3)cc1
  A1 apoptosis 2: -0.9

mol: O=C(N/N=C/c1ccc(N2CCCC2)cc1)c1ccccn1
  A1 apoptosis 2: -0.4
mol: O=C(O)CCCCCCC(=O)NN=C1CCCC1
  A1 apoptosis 2: 0.5
mol: C[C@H](CO)N1C[C@H](C)[C@@H](CN(C)Cc2ccc(C(=O)O)cc2)Oc2ccc(NC(=O)Nc3ccc4c(c3)OCO4)cc2C1=O
  A1 apoptosis 2: 0.0
mol: CC(C)NC(=O)Nc1ccc2c(c1)C(=O)N([C@@H](C)CO)C[C@@H](C)[C@@H](CN(C)Cc1ccc(C(F)(F)F)cc1)O2
  A1 apoptosis 2: -0.3
mol: Cc1noc(C)c1S(=O)(=O)N(C)C[C@@H]1Oc2ccc(NS(=O)(=O)c3cn(C)cn3)cc2CC(=O)N([C@H](C)CO)C[C@@H]1C
  A1 apoptosis 2: -0.2
mol: C[C@@H]1CN([C@H](C)CO)C(=O)c2cccc(NC(=O)c3cnccn3)c2O[C@H]1CN(C)C(=O)Nc1ccccc1
  A1 apoptosis 2: 0.3
mol: C[C@@H]1CN([C@H](C)CO)C(=O)Cc2cc(NC(=O)C3CC3)ccc2O[C@H]1CN(C)S(=O)(=O)c1cccs1
  A1 apoptosis 2: -0.2
mol: C[C@@H]1CN([C@H](C)CO)C(=O)c2cc(N(C)C)ccc2O[C@H]1CN(C)C(=O)Nc1ccc(F)cc1
  A1 apoptosis 2: 0.2
mol: C[C@@H]1CN([C@H](C)CO)C(=O)c2cccc(NC(=O)Nc3ccccc3)c2O[C@H]1CN(C)Cc1ccc2c(c1)OCO2
  A1 apoptosis 2: -0.7
mol: Cc1ccc(S(=O)(=O)Nc2cccc3c2O[C@H](CN(C)C(=O)NC2CCCCC2)[C@@H](C)CN([C@H](C)CO)C3=O)cc1
  A1 apoptosis 2: 0.6
mol: Cc1ccc(S(=O)(=O)Nc2ccc3c(c2)C(=O)N([C@H](C)CO)C[C@H](C)[C@@H](CN(C)Cc2ccc(Cl)c(Cl)c2)OCCCC[C@@H](C)O3)cc1
  A1 apoptosis 2: -1.6
mol: C[C@@H]1CN([C@H](C)CO)C(=O)Cc2cc(NC(=O)CCC(F)(F)F)ccc2O[C@H]1CN(C)C
  A1 apoptosis 2: 0.6

# Gathered by group, those above containing two or more sulfur atoms
mol: C[C@H](CO)N1C[C@H](C)[C@H](CN(C)S(=O)(=O)c2cn(C)cn2)Oc2ccc(NS(=O)(=O)c3ccccc3)cc2C1=O
  A1 apoptosis 2: -0.8
mol: C[C@@H]1CCCCO[C@H](CN(C)S(=O)(=O)c2cn(C)cn2)[C@@H](C)CN([C@H](C)CO)C(=O)c2cc(NS(=O)(=O)c3cccs3)ccc2O1
  A1 apoptosis 2: 0.0
mol: COc1ccc(CN(C)C[C@H]2Oc3ccc(NS(=O)(=O)c4cccs4)cc3C(=O)N([C@@H](C)CO)C[C@@H]2C)cc1
  A1 apoptosis 2: 1.6
mol: COc1ccc(S(=O)(=O)Nc2ccc3c(c2)C(=O)N([C@H](C)CO)C[C@H](C)[C@H](CN(C)S(=O)(=O)c2cccs2)O3)cc1
  A1 apoptosis 2: 0.8
mol: Cc1ccc(S(=O)(=O)N(C)C[C@H]2OCCCC[C@H](C)Oc3ccc(NS(=O)(=O)c4ccc(F)cc4)cc3C(=O)N([C@H](C)CO)C[C@@H]2C)cc1
  A1 apoptosis 2: -1.3
mol: Cc1noc(C)c1S(=O)(=O)N(C)C[C@@H]1Oc2ccc(NS(=O)(=O)c3cn(C)cn3)cc2CC(=O)N([C@H](C)CO)C[C@@H]1C
  A1 apoptosis 2: -0.2
mol: C[C@@H]1CN([C@H](C)CO)C(=O)Cc2cc(NC(=O)C3CC3)ccc2O[C@H]1CN(C)S(=O)(=O)c1cccs1
  A1 apoptosis 2: -0.2
